Rango release inh = inhibition of RanGTP-driven Rango-importin beta dissociation | 340,000 compounds, 0.071% hits | Biochemical FRET Rango-importin beta, RanGTP-induced dissociation | AID 540253 | Potency, µM (doses to about 46.1 µM), inactives show top-dose activity change, negative = inhibition; active means falling FRET ratio curve, often poorly fitted, with flat reads before Ran was added; inconclusive means other falling curves, or compound fluorescence or quenching; inactive means flat or rising ratio curve;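 further: potency means the concentration at half of the fitted maximal effect; % of control where 0% means no effect; nearly all actives have a fitted effect of over 45% in size; -100% = wells without RanGTP and RCC1; the record marks most hits as doubtful in a second field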
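Recombinant Rango FRET biosensor (EYFP–snurportin 1 IBB–cerulean CFP10) at 0.1 uM premixed with 0.25 uM importin beta in PBS, 1 mM DTT, 0.02% Tween-20, 0.1% BSA. Compound added 5 min; RanGTP-RCC1 (0.6 uM Ran, 2 mM GTP, 0.2 uM RCC1) then triggers release, read at 45 min.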
Rango complex inh = prevents formation of the Rango-importin beta complex | Q14974 | Rango CFP/YFP FRET sensor + importin beta, 45 min | Potency, µM (doses to about 92.2 µM), for the others: at the highest dose inhibition of complex formation | 340,000 compounds, 0.031% hits | AID 540263; active = rising FRET ratio curve, often small or poorly fitted; inconclusive = mostly compound fluorescence or quenching in the first reads; inactive = flat curves in all reads;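 further: potency means the concentration at half of the fitted maximal effect; 0% = DMSO wells and 100% = buffer wells lacking importin beta; nearly all actives have a fitted effect of over 15% in size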
Target sequence (Q14974 whole entry, looked up): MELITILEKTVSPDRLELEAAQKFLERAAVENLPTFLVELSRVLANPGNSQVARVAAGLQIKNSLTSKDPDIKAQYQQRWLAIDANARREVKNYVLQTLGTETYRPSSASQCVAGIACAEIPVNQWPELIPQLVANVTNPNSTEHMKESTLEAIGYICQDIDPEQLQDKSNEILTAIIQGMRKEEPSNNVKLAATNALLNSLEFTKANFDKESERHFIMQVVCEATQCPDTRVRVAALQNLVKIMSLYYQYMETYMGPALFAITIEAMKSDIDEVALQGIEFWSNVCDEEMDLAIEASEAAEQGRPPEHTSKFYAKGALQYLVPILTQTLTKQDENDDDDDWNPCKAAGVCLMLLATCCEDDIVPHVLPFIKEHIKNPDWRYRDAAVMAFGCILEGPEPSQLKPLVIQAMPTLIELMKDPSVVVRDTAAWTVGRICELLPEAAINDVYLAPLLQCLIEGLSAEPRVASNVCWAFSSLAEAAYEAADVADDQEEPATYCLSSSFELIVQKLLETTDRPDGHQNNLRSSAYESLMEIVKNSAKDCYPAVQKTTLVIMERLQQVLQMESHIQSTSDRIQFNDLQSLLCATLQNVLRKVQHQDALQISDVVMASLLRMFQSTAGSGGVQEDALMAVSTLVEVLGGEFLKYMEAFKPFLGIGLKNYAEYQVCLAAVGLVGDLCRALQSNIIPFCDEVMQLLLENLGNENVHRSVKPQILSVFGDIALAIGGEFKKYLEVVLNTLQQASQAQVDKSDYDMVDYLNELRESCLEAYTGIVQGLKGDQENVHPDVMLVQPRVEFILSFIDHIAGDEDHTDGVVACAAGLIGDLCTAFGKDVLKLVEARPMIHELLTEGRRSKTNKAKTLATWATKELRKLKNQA
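Inhibition scored from the CFP 486 nm/YFP 530 nm FRET ratio 45 min after adding 0.125 microM importin beta to 50 nM Rango biosensor preincubated 5 min with compound (room temperature, PBS with DTT, Tween-20, BSA). No-importin wells as positive control.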
miR-21 reporter = raises the signal of a miR-21 reporter; HeLa miR-21 FLuc reporter, luciferase, 48 h; Potency, µM (doses to about 38.3 µM), for inactives: at the highest dose reporter change, positive = more light; 340,000 tested, under 10 active; active = well fitted rising curve with a large enough effect; inconclusive = small, poorly fitted or top-dose-only effect; inactive = no such curve, though single readings can be large or run the other way;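 further: % of control where 0% means no effect; miR-21 action dims this reporter so a rising signal means less miR-21 action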
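HeLa cells endogenously expressing miR-21, stably carrying CMV-driven firefly luciferase with a downstream miR-21 binding site, 2000 cells/well. Titrations up to approximately 40 uM, 48 hours; luciferase luminescence read.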
GLA inh pH 4.5 = inhibitors of human alpha-galactosidase A at pH 4.5; purified enzyme, 4-MU-alpha-Gal fluorescence, pH 4.5; activity change, negative = inhibition, % at 105 µM; AID 1467; 230,000 tested, under 10 active; P06280; inconclusive = small, poorly fitted or top-dose-only inhibition, or a rising curve; inactive = flat fitted curve, though single readings scatter; no compound was filed as active;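 further: 0% = full activity with enzyme and -100% = basal without enzyme; dose as in the result columns while the protocol names 77 µM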
An asterisk follows results filed as active; u = inconclusive; x = not tested or not shown; & = joins results of further samples.

SMILES	Rango release inh	Rango complex inh	miR-21 reporter	GLA inh pH 4.5
O=S(=O)(Nc1nc2ccccc2nc1N1CCN(c2ccccc2F)CC1)c1ccc(Cl)cc1	-8%	-0.1%	-7%	u
O=C(OCc1cc2ccccc2[nH]c1=O)c1cccs1	16%	0.1%	-4%	6
Cc1ccnc(NC(=O)C2CCN(S(=O)(=O)c3ccc4ccccc4c3)CC2)c1	9%	7.5%	x	x
CC1CCCC(C)N1C(=O)COC(=O)c1ccc(O)cc1 (stereo unspecified)	3%	1.6%	-12%	6
CCc1cc(=O)oc2c(C)c(OCC(=O)NCCCN3CCOCC3)ccc12	14%	-0.1%	-2%	x
CCCc1nn2c(=O)cc(CSCC(=O)Nc3ccccc3OC)nc2s1	-14%	-1.0%	2%	x
O=C(O)COc1ccccc1/C=N/NC(=O)CSc1nnc(-c2ccc(Cl)cc2)n1C1CCCCC1	8%	3.9%	0%	1
N=C1/C(=C\c2coc3ccccc3c2=O)C(=O)N=C2SC(c3ccncc3)=NN12	u	u	3%	-9
C#CCOCCOCCOCCNc1nc(N2CCN(C(=O)[C@H](CCC(=O)O)n3cc(C(N)CC(C)C)nn3)CC2)nc(N2CCN(C(=O)[C@H](Cc3ccc(O)cc3)n3cc(C(N)CC(C)C)nn3)CC2)n1 (stereo partly specified)	-1%	-0.6%	0%	13
Cc1cc(SCC(=O)OCC(=O)N2CCN(C(=O)c3ccco3)CC2)c(C)cc1Br	-7%	6.8%	-5%	-1
Cc1c(NC(=O)C(C)Sc2nnc(-c3ccccc3)o2)c(=O)n(-c2ccccc2)n1C (stereo unspecified)	21%	-2.3%	-8%	1
Cc1ccc2c(c1)c1c3n2CCCN(Cc2ccccc2)C3CCC1 (stereo unspecified)	2%	0.6%	2%	x

Nothing new here: an excerpt of the list.
SMILES	Rango release inh	Rango complex inh	miR-21 reporter	GLA inh pH 4.5
C#CCOCCOCCOCCNc1nc(N2CCN(C(=O)[C@H](CCC(=O)O)n3cc(C(N)CC(C)C)nn3)CC2)nc(N2CCN(C(=O)[C@H](Cc3ccc(O)cc3)n3cc(C(N)CC(C)C)nn3)CC2)n1 (stereo partly specified)	-1%	-0.6%	0%	13
Cc1cc(SCC(=O)OCC(=O)N2CCN(C(=O)c3ccco3)CC2)c(C)cc1Br	-7%	6.8%	-5%	-1
Cc1c(NC(=O)C(C)Sc2nnc(-c3ccccc3)o2)c(=O)n(-c2ccccc2)n1C (stereo unspecified)	21%	-2.3%	-8%	1
Cc1ccc2c(c1)c1c3n2CCCN(Cc2ccccc2)C3CCC1 (stereo unspecified)	2%	0.6%	2%	x

(cont.)
SMILES	Rango release inh	Rango complex inh	miR-21 reporter	GLA inh pH 4.5
COc1ccc(NC(=O)CSc2nc(C)cc(C(F)(F)F)n2)cc1	-6%	1.9%	-5%	2
O=C(O)COc1ccc(NC(=O)C(c2ccccc2)c2ccccc2)cc1	1%	1.1%	-2%	x
CCOc1cccc(-c2nc3cc(C)ccc3o2)c1	7%	3.2%	-32%	0
COc1ccc(-c2nc(C#N)c(NCc3cccnc3)o2)cc1OC	9%	1.0%	-54%	12
C=CCn1c(SCC(C)=O)nc2scc(-c3ccco3)c2c1=O	-7%	-1.3%	1%	x
COc1ccc(C2CC(c3cccs3)=NN2C(=O)CSc2nnc(N)s2)cc1OC (stereo unspecified)	-19%	2.9%	-1%	-3
Cc1ccsc1C(=O)N1CCC(N2CCC(C(=O)NCC3CCCO3)CC2)CC1 (stereo unspecified)	u	u	-2%	-4
Cc1noc(C)c1C(=O)N1CCCc2ccccc21	10%	2.3%	-6%	2
CN(C)C(CNC(=O)/C=C/c1cccc(Cl)c1)c1ccccc1 (stereo unspecified)	-6%	-1.5%	-9%	-1
Cc1ccc(CSCc2nc3ccccc3[nH]2)cc1	-11%	1.3%	-23%	-10
O=C(O)c1ccc(NS(=O)(=O)c2cccc(C(=O)Nc3ccc(Br)cc3)c2)cc1	8%	0.1%	-2%	x
COc1ccc(NC(=O)c2nc(SC)ncc2Cl)cc1	-10%	3.7%	-1%	2
CC(=O)c1ccc(NC(=O)NCc2ccc(F)cc2)cc1	9%	-3.8%	-15%	0
C=CC(=O)OCCOCCOCCOCCOC(=O)C=C	0%	-0.9%	x	x
COc1cccc(C(=O)Nc2ccccc2OC(F)(F)F)c1	-1%	3.1%	-9%	4
CCCCc1c(O)nc(SCC(=O)NC(C)(C)C)n(-c2ccccc2C)c1=O	13%	-0.1%	5%	-15
NC(=O)c1ncn([C@@H]2O[C@H](CNCc3cc(Cl)ccc3OCc3ccc(Cl)cc3)[C@@H](O)[C@H]2O)n1	-1%	0.3%	x	x
CC(C)c1nnc(NC(=O)CN(C)S(=O)(=O)c2ccc3c(c2)OCCO3)s1	-11%	-1.0%	-4%	6
O=C(O)c1cccnc1SC1CC(=O)N(c2ccc(OC(F)F)cc2)C1=O (stereo unspecified)	-6%	0.8%	-1%	-4
CC(=O)c1ccc(OCCCC(=O)Nc2ccc(C)c(S(=O)(=O)N3CCCCC3)c2)cc1	0%	0.8%	x	x
CN(C)c1ccc(/C=C/C(=O)c2c(O)c3ccccc3oc2=O)cc1	u	-0.2%	-22%	-1
Cc1ccc(S(=O)(=O)Nc2cccc(C(=O)NCc3ccc(S(N)(=O)=O)cc3)c2)cc1	0%	-0.6%	1%	x
CC1(C(=O)NC2CCCCCCC2)CCC(=O)N1Cc1cccs1 (stereo unspecified)	20%	0.6%	3%	-2
Cc1ccc(OCC(=O)Nc2ccc3c(c2)nc(CCN2CCC(C)CC2)n3C)cc1	2%	-1.0%	-2%	x
CCOC(=O)C1=C(c2ccccc2)NC(=O)NC1c1ccsc1 (stereo unspecified)	-4%	3.2%	6%	x
c1ccc(CNc2ccc(CNc3ncn[nH]3)cc2)cc1	3%	-2.5%	-28%	0
COc1ccc(C(O)c2nccn2C)cc1 (stereo unspecified)	-10%	-0.1%	-2%	-18
O=C(NC(=S)N1CCN(c2c(Cl)cccc2[N+](=O)[O-])CC1)c1cccs1	-8%	1.1%	-21%	10
COc1ccc(C2=Nn3c(nnc3-c3ccco3)SC2)cc1OC	-4%	1.9%	-35%	u
N#Cc1cccc2cccc(S(=O)(=O)N3CCOCC3)c12	7%	-2.1%	x	x
COc1c(Cl)cc(C(=O)NN)cc1Cl	4%	1.1%	23%	0
COc1ccc(N2CCN(CCNC(=O)C3CCN(S(=O)(=O)c4cccs4)CC3)CC2)cc1	5%	5.4%	0%	-8
COc1cc(C(=O)NCCc2ccc(F)cc2)ccc1OCC(=O)N1CCOCC1	-11%	0.0%	x	x
Cc1cccc(N2CCN(C(=O)NCc3ccc(Cl)cc3)CC2)c1	4%	-5.5%	5%	-3
O=C(CNC(=O)c1ccco1)OCc1c(F)cccc1Cl	1%	-3.5%	-5%	3
O=C(CNc1cc(S(=O)(=O)N2CCOCC2)ccc1N1CCCC1)NCc1ccco1	-12%	3.6%	0%	2
CCOC(=O)c1cc2cc(-c3c(C(=O)OCC)oc4cc(O)cc(O)c4c3=O)ccc2o1	-6%	-3.3%	-10%	0
COc1cccc(-n2c(-c3cccc(S(=O)(=O)N(C)C)c3)n[nH]c2=S)c1	7%	6.2%	-3%	-4
Cc1ccc(NC(=O)CCNS(=O)(=O)c2ccc3[nH]c(=O)oc3c2)cc1	-1%	0.7%	-3%	x
Nc1nc(SCC(=O)Nc2ccccc2C(F)(F)F)[nH]c(=O)c1-c1ccccc1	3%	1.1%	-1%	0
Cc1cnc(N=Nc2ccccc2)[nH]1	-7%	2.7%	x	x
O=C(NCCN1CCOCC1)C(=O)NCC1CCCO1 (stereo unspecified)	0%	3.6%	2%	-4
CS(=O)(=O)Nc1cccc(C2=NN(C(=O)c3ccc(F)cc3)C(c3cccs3)C2)c1 (stereo unspecified)	1%	0.6%	5%	x
COC(=O)[C@@]1(C)[C@H]2C(=O)N(C)C(=O)[C@H]2[C@H]2CN=C(SCc3ccc(Cl)cc3)N21	12%	0.9%	x	x
Cc1nc(N/N=C/c2ccc(O)cc2O)cc(N2CCOCC2)n1	-3%	u	14%	x
C=CCN1C(=O)C2(OCCO2)c2cc(C)ccc21	8%	-4.3%	-1%	x
Cc1ccccc1COC[C@H](CC(C)C)N1CCN(C(=O)c2cccc(C(F)(F)F)c2)CCC1=O	-23%	-0.2%	0%	-2
CC1(C)CCCC2=C1CC1C(=O)N(c3ccccc3)C(=O)C1C2 (stereo unspecified)	-6%	-5.1%	-6%	-4
COc1ccc(CCNC(=O)[C@@H](NC(=O)c2ccccc2F)C(C)C)cc1OC	18%	-9.6%	0%	1
Cc1ccc2nc(NC(=O)c3cccs3)sc2c1	-11%	-0.5%	1%	-4
CCC(C)NC(=O)c1cnn2c(C)c3c(nc12)CCCC3 (stereo unspecified)	u	u	-27%	9
CC1CN(C(=S)Nc2cccc([N+](=O)[O-])c2)CC(C)O1 (stereo unspecified)	21%	3.7%	-5%	x
O=C(Nc1ccc(OCC(=O)N2CCOCC2)cc1)Nc1cccc(Cl)c1	0%	-9.1%	-15%	-6
Cc1cc(C)c2nc(C)cc(Nc3ccc(C(=O)N4CCOCC4)cc3)c2c1	u	-0.2%	-1%	-11
COc1ccc(NC(=O)c2nc3ccccc3s2)cc1	2%	u	0%	4
COc1ccc(C(=O)NN2C(=O)C3C(c4ccccc4)C=CC(c4ccccc4)C3C2=O)cc1 (stereo unspecified)	6%	3.5%	-3%	-9
Cc1cccc(CN2CCC(n3nccc3NC(=O)CCCc3ccccc3)CC2)n1	0%	-1.2%	-5%	x
CCN(c1ccccc1)S(=O)(=O)c1ccc(C(=O)N2CC(C)CC(C)C2)cc1 (stereo unspecified)	-5%	-0.9%	x	x
CCCc1cc(C(=O)NCc2cccnc2)no1	-3%	-0.2%	-14%	-8
CCCCNC(=O)c1onc(CSc2ccc(F)c(F)c2)c1C(=O)O	0%	-1.1%	-16%	6
(continued)
SMILES	Rango release inh	Rango complex inh	miR-21 reporter	GLA inh pH 4.5
N#C/C(=C/c1ccc(N2CCOCC2)o1)c1nc2ccccc2[nH]1	u	u	-38%	-2
O=C(/C=C/c1ccccc1)NCc1cccnc1	27%	3.6%	-10%	-5
CCOC(=O)c1cc(-c2cc3ccccc3o2)n[nH]1	1%	u	4%	-16
CC1(c2ccccc2)NC(=O)N(CC(=O)Nc2nnc(C3CC3)s2)C1=O (stereo unspecified)	6%	-0.1%	2%	x
c1ccc(-c2nnc(-c3ccncc3)o2)cc1	-9%	-3.2%	-49%	-4
CNC(=O)c1c(NC(=O)c2ccco2)sc2c1CCCC2	-9%	-10%	-14%	x
CC1CN(C(=S)NC(=O)c2cccc([N+](=O)[O-])c2)CC(C)O1 (stereo unspecified)	-3%	1.3%	1%	5
CCc1ccc(OCC(=O)Nc2ccc(S(=O)(=O)Nc3cc(C)on3)cc2)c(Br)c1	8%	1.8%	-11%	x
Cc1ccc(S(=O)(=O)NCC(=O)OCC(=O)NCCc2ccccc2)cc1	-12%	u	x	x
COCCCNC(=S)N1CCC(NC(=O)c2ccco2)CC1	-1%	0.7%	-1%	-1
CCc1cccc2c3c([nH]c12)C(CC)(CC(=O)O)OCC3 (stereo unspecified)	-12%	0.0%	-4%	-13&2
Cn1cc(CN2CCC(n3nccc3NC(=O)CCOc3ccccc3)CC2)cn1	-11%	1.4%	2%	x
CC(C)(C)NC(=O)c1ccc2c(c1)N(CC(=O)N1CCN(c3ccc(F)cc3)CC1)C(=O)C(C)(C)O2	7%	-4.5%	0%	-5
CCCCc1nc2ccccc2c(C(=O)O)c1C	10%	-0.3%	0%	5
CCCCN(C(=O)c1c(CC)noc1C)c1c(N)n(CC(C)C)c(=O)[nH]c1=O	-7%	1.7%	x	x
O=C(O)C1=CCCc2ccc(F)cc21	-1%	0.6%	x	x
O=C(NCCCCNC(=O)C(F)(F)F)C(F)(F)F	-1%	-7.7%	0%	6
O=C(Nc1ccc2c(c1)CN(Cc1ccccc1O)CC2)C1CCCO1 (stereo unspecified)	21%	4.1%	-1%	x

Structural class, the compounds so far with a cyano group
SMILES	Rango release inh	Rango complex inh	miR-21 reporter	GLA inh pH 4.5
COc1ccc(-c2nc(C#N)c(NCc3cccnc3)o2)cc1OC	9%	1.0%	-54%	12
N#Cc1cccc2cccc(S(=O)(=O)N3CCOCC3)c12	7%	-2.1%	x	x
N#C/C(=C/c1ccc(N2CCOCC2)o1)c1nc2ccccc2[nH]1	u	u	-38%	-2

Only part of the results is shown, so the mix of outcomes need not match the whole.
